Screens: PubChem, several laboratories
Proteasome disasm: inhibitors of ATP-driven 26S proteasome dissociation, primary screen, biochemical, bead-based flow cytometry, GFP-tagged proteasome; actives 0.2% (n = 24,000); inhibition of disassembly, % (no concentration beside the values); anti-FLAG beads, GFP-proteasome disassembly;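 active = above 40%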;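 note: plate controls were ATP control with full disassembly for no effect and ATP-gamma-S intact proteasomes for full effect; higher percent means more bead fluorescence retained so stronger block of disassembly; stock transfer was 100 nL into about 10 µL; wells with too few beads may also be inconclusive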
VCAM-1 up: enhancers of VCAM-1 display on endothelial cells, cell-based, plate reader, pooled HUVEC, TNFa stimulus (AID 455); actives 0.2% (n = 10,000); HUVEC TNFa-induced VCAM-1 immunofluorescence, plate reader; numbers were filed only for top-ranked candidate wells; augmentation, % at 5 µM;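 active = a compound raising TNF-alpha-driven VCAM-1 surface staining, with its hit status upheld on visual or statistical review; inactive = the rest, including hits rejected on review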;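 note: 0% = TNFa with vehicle and 100% = strongest image-checked hit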
The depositor's hits bear a star; i = inactive; · = no result given. The list is partial, so the mix of outcomes need not match the whole.

Proteasome disasm,VCAM-1 up,SMILES
0.2,·,CCC(C)(C(=O)NC1CCCCC1)N(Cc1ccco1)C(=O)CNC(=O)c1ccccc1 (configuration not stated)
-0.4,i,CC1CCCC(C)N1C(=O)COC(=O)c1ccc[nH]c1=O (configuration not stated)
4.1,i,CC(=O)c1cccc(S(=O)(=O)NCC(c2ccco2)N2CCCCC2)c1 (configuration not stated)
-0.4,·,COc1ccc(C(c2sc3nc(C)nn3c2O)N2CCC3(CC2)OCCO3)cc1 (configuration not stated)
0.6,·,CCCN(CCC)c1nc(NC2CCN(C(=O)OCC)CC2)nc(OC)n1
-2.8,i,COCCNC(=S)c1ccc(OC)cc1
0.7,i,CCN(C1CCCCC1)S(=O)(=O)c1ccc(S(=O)(=O)N2CCN(CCC#N)CC2)cc1
-1.4,·,COC(=O)N1CC(=O)N(OC)C1c1ccc(Cl)cc1Cl (configuration not stated)
-0.8,·,CC(C)(C)C(=O)NC(=C(Cl)Cl)P(=O)(O)O
0.0,i,CC(Sc1nnc(-c2cc3ccccc3o2)n1-c1ccccc1)C(=O)O (configuration not stated)
2.0,·,COc1ccc(OC)c(CCNC(=O)Cn2sc3nc(C)cc(C)c3c2=O)c1
0.4,·,Cc1ccc(-c2c3c(=O)n(C)c(=O)n(C)c3cn2-n2cnnc2)cc1
-3.8,·,O=C(O)CC(O)C(=O)O (configuration not stated)
2.2,·,COc1cc(C2CC(=O)N(CC(=O)NCc3ccco3)c3ccccc3S2)cc(OC)c1OC (configuration not stated)
0.0,i,CC1CCc2nc(NC(=O)CN3CCN(Cc4ccc5c(c4)OCO5)CC3)sc2C1 (configuration not stated)
-1.1,i,Cn1c(=O)c(=O)n(C)c2cc(S(=O)(=O)N3CCN(c4cccc(C(F)(F)F)c4)CC3)ccc21
-1.1,·,COCCNC(=O)c1cc(-c2ccc3c(c2)OCO3)on1
-0.7,i,c1c2c(cc3sc(N4CCCCC4)nc13)OCCO2
-0.1,·,Cc1ccc(OCCn2ccc(=O)[nH]c2=O)cc1C
0.1,i,CCOC(=O)N1CCN(C(=O)c2ccc(N3C(=O)CCC3=O)cc2)CC1

Retrieved one by one from above (5):
Proteasome disasm,VCAM-1 up,SMILES
0.0,i,CC1CCc2nc(NC(=O)CN3CCN(Cc4ccc5c(c4)OCO5)CC3)sc2C1 (configuration not stated)
-1.1,i,Cn1c(=O)c(=O)n(C)c2cc(S(=O)(=O)N3CCN(c4cccc(C(F)(F)F)c4)CC3)ccc21
2.2,·,COc1cc(C2CC(=O)N(CC(=O)NCc3ccco3)c3ccccc3S2)cc(OC)c1OC (configuration not stated)
0.4,·,Cc1ccc(-c2c3c(=O)n(C)c(=O)n(C)c3cn2-n2cnnc2)cc1
-3.8,·,O=C(O)CC(O)C(=O)O (configuration not stated)

(cont.)
Proteasome disasm,VCAM-1 up,SMILES
-0.6,·,Cc1ccccc1NS(=O)(=O)c1ccc2[nH]cc(C(=O)N(C)Cc3ccco3)c(=O)c2c1
-0.9,·,CCOC(=O)N1CCN(C(=O)c2cc(-c3ccc(F)cc3)[nH]c2C)CC1
0.8,i,CN(C)CCOC(c1ccccc1)c1ccccc1
-2.2,·,O=C(c1ccc2nc(N3CCOCC3)sc2c1)N1CCN(C(=O)c2ccco2)CC1
2.3,i,O=C(NCc1ccccn1)c1ccc2nc(-c3ccco3)c(-c3ccco3)nc2c1
-0.2,·,Cc1nn(Cc2ccc(Cl)cc2)c(C)c1NC(=O)c1cc(-c2ccc3c(c2)OCO3)on1
3.4,·,CCN1CCCC1CNC(=O)c1cc2c(-c3ccc(Cl)cc3)nn(C)c2s1 (configuration not stated)
9.5,·,NC(=O)c1oc2ccccc2c1NC(=O)c1nc2ccccc2s1
-0.9,·,COc1ccc(NC(=O)CN(C)S(=O)(=O)c2cccc3cccnc23)cc1
0.9,i,c1cncc(-c2nnc3n2N=C(c2cccs2)CS3)c1
0.2,·,CCC(=O)N1c2ccc(S(=O)(=O)CCC(=O)NCCC3=CCCCC3)cc2CC1C (configuration not stated)
2.0,i,Cn1c2c(c(=O)n(C)c1=O)CN(CCCN1CCOCC1)CN2
-0.1,i,O=C1C(Cl)=C(NCC2CCCO2)C(=O)N1CCc1ccccc1 (configuration not stated)
0.5,i,COc1ccc(NC(=O)COc2ccccc2)c(OC)c1
-3.1,·,O=C(Cn1ncc2c(=O)oc3ccccc3c21)N1CCc2ccccc2C1
0.0,i,CCOCCOc1nc2c(c(=O)n(C)c(=O)n2C)n1Cc1ccc(C)cc1
-0.4,·,CCOC(=O)C1CCN(c2c(NCc3ccc(C(=O)NC(C)CC)cc3)c(=O)c2=O)CC1 (configuration not stated)
-0.1,·,COc1ccc(NC(=O)CN2CCN(c3ccc(Cl)cc3)CC2)c(OC)c1
-0.7,·,CN1C(=O)c2ccccc2C(C(=O)NCc2ccco2)C1c1c[nH]c2ccccc12 (configuration not stated)
1.8,·,Cc1ccc2oc(=O)c3cnn(CC(=O)N(CCCN4CCOCC4)Cc4ccco4)c3c2c1
0.1,·,CCC(C(=O)N1CCc2ccccc2C1)n1nc(C)n2c(cc3occc32)c1=O (configuration not stated)
0.2,i,CCc1ccc(N2CC(C(=O)OCC(=O)Nc3cc(C)on3)CC2=O)cc1 (configuration not stated)
-0.3,·,CCCN(CC1CC1)S(=O)(=O)c1ccc(S(N)(=O)=O)cc1
-0.1,·,O=C(O)CCC(=O)N1CCc2cc(S(=O)(=O)NC3CCCC3)ccc21
-0.9,·,COc1cc(C2NC(C(=O)O)CS2)ccc1OCc1ccccc1C#N (configuration not stated)
-0.1,·,O=C(NCCN1CCOCC1)c1ccc2c(c1)ncn2C1CCCCC1
-1.5,·,CCOC(=O)N1CCC(n2c(SCC(=O)NCc3ccccc3)nc3ccccc3c2=O)CC1
-0.1,·,Cc1oc(-c2ccccc2F)nc1CS(=O)(=O)CC(=O)NCCN(C)C1CCCCC1
-0.1,i,CC(=O)c1cccc(NC(=O)CCNS(=O)(=O)c2cccc3nsnc23)c1
0.0,·,COc1ccc(Cl)cc1S(=O)(=O)N1CCN=C1C
0.6,·,COc1ccc(-c2nn(C)c3sc(C(=O)N4CCOCC4)cc23)cc1OC
0.9,i,COc1cc2c(cc1OC)-c1cc(Nc3ccc4c(c3)OCCO4)nc(=O)n1CC2
1.0,i,CCCOc1cccc(NC(=O)c2c(-c3ccccc3)noc2C)c1
-2.9,·,CCc1ccc(-c2nc(CN3CCCC(C(=O)O)C3)c(C)o2)cc1 (configuration not stated)
2.6,i,CCN(CC)CCCN1C(=O)C(O)=C(C(C)=O)C1c1cccc(OC)c1 (configuration not stated)
6.3,·,COc1ccc(N2CCN(CCNC(=O)CCNS(=O)(=O)c3cccs3)CC2)cc1
0.4,·,Cc1ccc(-c2noc(CCC(=O)NCCCN3CCN(c4cccc(Cl)c4)CC3)n2)cc1
-0.6,i,CCOC(=O)C1CCCN(c2cc(=O)n(Cc3ccc(F)cc3)c(=O)[nH]2)C1 (configuration not stated)
-0.1,·,O=C(NCc1cccnc1)c1ccc(CS(=O)(=O)c2ccc(Cl)cc2)o1
0.6,·,Cc1cc(NC(=O)CSCc2nc(-c3cccc(Cl)c3)oc2C)no1
-0.3,·,CCC(C)NC(=O)Cn1c(=O)n(CCCCC(=O)NCc2ccco2)c(=O)c2ccccc21 (configuration not stated)
-1.3,i,COC(=O)CSc1nc2nc(C)cc(C)n2n1
0.4,i,O=C(Nc1ncc(Cc2ccccc2)s1)C1CCCO1 (configuration not stated)
3.5,·,CCOC(=O)Cn1c(=O)oc2cc(S(=O)(=O)NCCc3ccc(C)cc3)ccc21
1.5,·,COc1cccc(CNC(=O)c2ccc(NC(=O)C3CCCO3)cc2)c1 (configuration not stated)
-0.1,·,CCC1Oc2ccccc2N(CC(=O)NCCCN2CCOCC2)C1=O (configuration not stated)
0.6,·,CCCS(=O)(=O)N1CCCC(C(=O)NCCN(Cc2ccccc2)C(C)C)C1 (configuration not stated)
3.9,·,COc1cccc2cc(-c3nc(-c4cccs4)cs3)c(=O)oc12
0.1,i,Cc1cc(C)c2oc(=O)cc(CN3CCOCC3)c2c1
0.9,i,Cc1ccc2c(C)nc(NC3=NCN(C(C)C)CN3)nc2c1

Arranged by formula weight (highest first): part of the list above.
Proteasome disasm,VCAM-1 up,SMILES
1.5,·,COc1cccc(CNC(=O)c2ccc(NC(=O)C3CCCO3)cc2)c1 (configuration not stated)
0.9,i,Cc1ccc2c(C)nc(NC3=NCN(C(C)C)CN3)nc2c1
0.1,i,Cc1cc(C)c2oc(=O)cc(CN3CCOCC3)c2c1

Later entries:
Proteasome disasm,VCAM-1 up,SMILES
3.4,i,Cc1cccc(C)c1NC(=O)COC(=O)c1nonc1N
0.6,i,COc1ccc(NC2c3ncccc3C(=O)N2Cc2ccccc2)c(OC)c1 (configuration not stated)
-0.8,i,Clc1ccc(CSc2nnc(Cn3cnc4ccccc43)o2)cc1
-1.7,·,Cc1ccc(-c2noc(CCC(=O)Nc3cccc(C#N)c3)n2)cc1
0.7,i,FC(F)(F)c1ccc(Sc2nnc(-c3cccs3)n2CC2CCCO2)nc1 (configuration not stated)
0.4,i,CCN(CC)c1ccc2cc(NC(=O)CCC(=O)O)c(=O)oc2c1
-1.7,·,CCCCCSc1nnc(C)c(=O)[nH]1
2.1,·,Cc1noc(C)c1S(=O)(=O)N1CCC(C(=O)N2CCC(C)CC2)CC1
0.2,·,CCn1c(C(C)NC(=O)Cc2ccccc2)nc2ccccc21 (configuration not stated)
-0.5,·,O=C1Nc2ccc(S(=O)(=O)N3CCCCCC3)c3cccc1c23

Looked up above.
Cc1noc(C)c1S(=O)(=O)N1CCC(C(=O)N2CCC(C)CC2)CC1 in Proteasome disasm: 2.1
Cc1cccc(C)c1NC(=O)COC(=O)c1nonc1N in Proteasome disasm: 3.4

Continued:
Proteasome disasm,VCAM-1 up,SMILES
0.9,·,O=C(Nc1ccccn1)C(NS(=O)(=O)c1cccc2nsnc12)c1ccccc1 (configuration not stated)
-0.8,i,CCc1nc2scc(-c3ccccc3)c2c(=O)n1N
0.4,·,O=C1C(=O)N(CCO)C(c2cccc(F)c2)/C1=C(\O)c1ccc(Cl)cc1 (configuration not stated)
-1.2,·,O=C(c1noc2c1CCCC2)N1CCCCC1
-1.2,·,Cc1cc(NC(=O)CSc2nc3cc4c(cc3c(=O)n2CCc2ccccc2)OCO4)no1
-0.1,i,Oc1c(Cl)cc(Cl)c2c1NCCC2
1.1,i,COCCn1cc(C(=O)c2ccccc2OCC(=O)Nc2cc(C)on2)cc(C#N)c1=O
0.1,·,Cc1noc(C)c1S(=O)(=O)N1CCC(C(=O)NC2CCCc3ccccc32)CC1 (configuration not stated)
-0.4,i,CCCS(=O)(=O)N1CCN(C(=O)c2cccnc2)CC1
6.0,i,N#Cc1c(-c2ccccc2)nc(SCc2nc(N)nc(N3CCCCC3)n2)[nH]c1=O
6.8,i,O=c1nc(N2CCCC2)nc(Nc2ccccc2)[nH]1
-0.4,·,COc1ccc(-n2nnc3c(SCC(=O)c4ccccc4)ncnc32)cc1
-1.6,i,Cc1cccc2c1nc(-c1ccccc1)n1cnnc21
-1.7,·,CCc1cc(C(=O)OC)c(NC(=O)CCCC(=O)O)s1
1.5,·,Cn1cccc1Cc1nnc(SCC(=O)N2CCc3ccccc32)n1CCc1ccccc1
3.1,·,Cn1c(=O)oc2cc(S(=O)(=O)N3CCCC(C(=O)N4CC=C(c5ccccc5)CC4)C3)ccc21 (configuration not stated)
1.4,i,COc1ccc(-c2noc(-c3ccccc3C(=O)Nc3cccnc3)n2)cc1OC
-2.2,·,Cc1cc(C(=O)Nc2nnc(-c3ccccc3)s2)no1
0.7,·,Cc1cccc(NC(=O)C2CC(O)CN2C(=O)OCc2ccccc2)c1 (configuration not stated)
5.7,·,COc1cccc(CNS(=O)(=O)c2cn(C)cn2)c1
1.0,·,Cc1ccc(C2C3=C(CCCC3=O)Nc3[nH]c(=S)[nH]c(=O)c32)cc1 (configuration not stated)
0.6,·,CSC1=NCCN1C(=O)c1cccc(C(F)(F)F)c1
1.5,·,O=C(CCn1c(=O)sc2ccccc21)NCc1ccco1
1.5,·,CCOCC(=O)Nc1ccc(-c2cn3cccnc3n2)cc1
3.2,·,COc1ccc(N(CC(=O)NCc2cccs2)S(=O)(=O)c2cccnc2)cc1
0.5,·,Cc1ccnc(N2C(=O)OC(C)(C)C2(C)O)c1 (configuration not stated)
0.3,·,CCN(CC)C(=O)N1CCN(C(=O)c2ccc(C)cn2)CC1
0.6,·,CCN1C(=O)c2n[nH]c(C(=O)OC)c2C1=O
-2.2,·,COCCOC(=O)c1[nH]c2c(c1C)C(=O)CC(c1ccccc1)C2 (configuration not stated)
3.6,·,NC(=O)Cn1c(=O)n(CCCC(=O)NC2CCN(Cc3ccccc3)CC2)c(=O)c2ccccc21
-0.8,·,COC(=O)CSc1nnc(CNC(=O)c2ccco2)n1-c1ccc(F)cc1
-1.2,i,CC(=O)c1c(C)[nH]c(C(=O)OCc2nnc(-c3ccccc3)o2)c1C
-0.2,·,CCOC(=O)c1ccc(NC(=O)c2nccnc2C(=O)O)cc1
-0.2,i,O=C(CCn1c(=O)oc2ccccc21)NCCN1CCOCC1
0.3,i,O=C(c1ccco1)N1CCN(C(=O)c2cc3c(s2)-c2ccccc2OC3)CC1
5.7,i,Cc1ccc(O)c(C(=O)c2cc(C#N)c(=O)n(CC3CCCO3)c2)c1 (configuration not stated)
-0.1,i,CN(C)c1nc(SCCOC(=O)c2ccccc2)nc(N(C)C)n1
-0.5,i,COc1ccc(NC(=O)C(C)NS(=O)(=O)c2ccccc2)cc1Cl (configuration not stated)
-1.9,i,CC1(C)C2CCC1(CS(=O)(=O)NCc1ccc(C(=O)O)cc1)C(=O)C2 (configuration not stated)
